High-throughput results: PubChem BioAssay, PCMD
Biofilm kill mix = mixture kills Candida albicans biofilm cells; C. albicans biofilm persisters + clotrimazole, fluorescence viability; primary screen in compound mixtures of four per well; inhibition, % at 7.6 µM; actives 0.02% (n = 120,000);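 active means inhibition above 30.3% in the primary screen of four-compound pools, then above 30% when the compound was retested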;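 further: compounds exposed to preformed 24 h biofilms for 48 h; the number belongs to the whole pool; some results filed as inactive read as strong as hits; inactives centre near 12; 0% = biofilm with clotrimazole alone and 100% = kill control; retested singly at about 60 µM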
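System: C. albicans CAF4-2 wild-type biofilms; Medium: RPMI/MOPS medium, pH 7.0; Reagent: Clotrimazole, 50 µg/mL; Times: biofilm formation 24 h, compound exposure 48 h, 37 °C; Detection: 2-h Alamar Blue fluorescence, 535/590 nm excitation/emission; Evaluation: percent inhibition of biofilm viability.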
Starred values were filed as active, the others as inactive. Only part of the results is shown (hit frequency here may not be typical).

Sample of the layout, 7 compounds:
SMILES | Biofilm kill mix
O=C(NC(NC(=S)N1CCOCC1)C(Cl)(Cl)Cl)c1cccc2ccccc12 (configuration not stated) | 18.6
CC(C)c1ccc(OCc2ccc(C(=O)O)o2)cc1 | 13.4
COc1cc(/C=C\C(=O)Nc2cc(=O)n(C)c(=O)n2C)cc(OC)c1OC | 10.4
CCSCc1nnc(SCC(=O)Nc2ccc(OC)cc2)n1C | 10.1
COc1ccc(NC(=S)NCc2cccs2)cc1OC | 5.1
COc1cc(NC(=O)c2cccs2)c(OC)cc1NC(=O)CCC(=O)Nc1cccc2ncccc12 | -12.7
O=C(CCc1ccc(Oc2cc([N+](=O)[O-])cc([N+](=O)[O-])c2)cc1)NC1CCCC1 | 13.7

Results, previewed entries included:
SMILES | Biofilm kill mix
O=C(NC(NC(=S)N1CCOCC1)C(Cl)(Cl)Cl)c1cccc2ccccc12 (configuration not stated) | 18.6
CC(C)c1ccc(OCc2ccc(C(=O)O)o2)cc1 | 13.4
COc1cc(/C=C\C(=O)Nc2cc(=O)n(C)c(=O)n2C)cc(OC)c1OC | 10.4
CCSCc1nnc(SCC(=O)Nc2ccc(OC)cc2)n1C | 10.1
COc1ccc(NC(=S)NCc2cccs2)cc1OC | 5.1
COc1cc(NC(=O)c2cccs2)c(OC)cc1NC(=O)CCC(=O)Nc1cccc2ncccc12 | -12.7
O=C(CCc1ccc(Oc2cc([N+](=O)[O-])cc([N+](=O)[O-])c2)cc1)NC1CCCC1 | 13.7
CC(C)OC(=O)c1nn2c(C(F)(F)F)cc(-c3ccco3)nc2c1Cl | 11.5
CCCCNC(=S)NCc1ccc2c(c1)cc(C)n2C | 8.6
CC1(C)C(c2ccccc2)=[N+]([O-])C2(CCCCC2=O)N1O (configuration not stated) | 6.3
CC(=O)Oc1ccc(C(=O)Nc2cccc(-c3nnc(-c4ccco4)o3)c2)cc1 | 14.9
COc1ccccc1C(=O)NNC(=O)C(=O)NCc1ccccc1 | 13.1

Looked up by compound from the entries so far (four):
SMILES | Biofilm kill mix
CC(C)c1ccc(OCc2ccc(C(=O)O)o2)cc1 | 13.4
COc1cc(/C=C\C(=O)Nc2cc(=O)n(C)c(=O)n2C)cc(OC)c1OC | 10.4
CC1(C)C(c2ccccc2)=[N+]([O-])C2(CCCCC2=O)N1O (configuration not stated) | 6.3
O=C(CCc1ccc(Oc2cc([N+](=O)[O-])cc([N+](=O)[O-])c2)cc1)NC1CCCC1 | 13.7

Later entries
SMILES | Biofilm kill mix
CN(C)S(=O)(=O)c1ccc(NC(=S)NC(=O)c2ccc(Br)o2)cc1 | 20.5
CC(C)CN(CC(C)C)C(=O)Nc1ccccc1F | 7.7
CC(C)N1CCN(Cc2cnc(N3CCCC3)s2)CC1CCO (configuration not stated) | -10.1
Cc1ccc(CC(=O)N/N=C/c2ccc(OC(=O)c3ccc([N+](=O)[O-])cc3)cc2)cc1 | 4.4
COc1cccc(NC(=O)CC(c2ccc(OC(C)C)cc2)c2ccccc2OC)c1 (configuration not stated) | 12.3
CCOc1ccc2nc(N/C(N)=N/C(=S)Nc3ccc(OC)cc3)nc(C)c2c1 | 9.6
CCNC(=O)NC(=O)C(C)OC(=O)C(C)(C)Oc1ccc(Cl)cc1 (configuration not stated) | 10.2
COc1ccc(CCN(Cc2ccccn2)C(=S)Nc2ccccc2F)cc1OC | 17.4
O=C(Nc1ccc(N2CCN(C(=O)c3cccs3)CC2)cc1)c1cccnc1Cl | -8.7
CCC(=O)Nc1cccc(-c2csc(-c3ccccc3)n2)c1 | 7.4
Cc1cc(N2CCCC2)nc2ccc(NC(=S)NC(C)C)cc12 | 28.7
Cc1noc(COc2ccccc2OCc2onc(C)c2Cl)c1Cl | 12.0
CCN(CC)CCOC(=O)CCc1cccc2ccccc12 | 13.8
O=C(OCCN1C(=O)c2cccc3c(N4CCOCC4)ccc(c23)C1=O)c1cccc(Cl)c1 | 4.3
COc1ccc(F)cc1C(=O)C1CCCN(Cc2c(C)n(C)n(-c3ccccc3)c2=O)C1 (configuration not stated) | 8.9
O=C(CNC(=O)c1ccco1)OCc1ccc(C(=O)c2ccccc2)cc1 | 12.1
CC(=O)c1cccc(N(C(=O)c2ccco2)C(C(=O)NC2CCCC2)c2ccc(N3CCOCC3)cc2)c1 (configuration not stated) | 8.7
Cc1cccc(C)c1NC(=O)CN(c1ccccn1)S(=O)(=O)c1ccc(F)cc1 | 15.2
COc1ccccc1CNC(=O)C1CCN(C(=O)NC2CCCCC2)CC1 | -2.6
CNC(=O)C1CC(=O)N(CCc2ccc(OC)c(OC)c2)C(=Nc2ccc(F)cc2)S1 (configuration not stated) | 14.1
CCOC(=O)C1CC(c2ccc(Cl)cc2)=NNC1=O (configuration not stated) | 19.8
COc1cccc(C(=O)COc2ccccc2-c2ccccc2)c1 | -9.2
CC(NCC(=O)Nc1cc(S(=O)(=O)N2CCCCCC2)ccc1Cl)c1ccccc1 (configuration not stated) | 13.3
CC1(C)Cc2c(c(N3CCOCC3)nc3sc(C(N)=O)c(N)c23)CO1 | 15.6
CC1(C)S[C@@H]2[C@H](NC(=O)[C@H](C(=O)O)c3ccsc3)C(=O)N2[C@H]1C(=O)O | 17.6
Cc1ccc(Oc2cc(NC(=O)CCCn3nc([N+](=O)[O-])c(Cl)c3C)cc([N+](=O)[O-])c2)cc1 | 17.0
O=c1c2[nH]c3ccc(F)cc3c2ncn1Cc1ccncc1 | 16.7
O=C(N/N=C/c1cccc(O)c1)c1ccc(NC(=O)c2cccc([N+](=O)[O-])c2)cc1 | 10.0
COc1ccccc1Cn1c(C)nnc1-c1cnn(C)c1N | -6.6
CCC1C(=O)c2ccccc2N(C)C1=O (configuration not stated) | 8.9
Nc1ccc(S(=O)(=O)N2CCCC2)cc1Cl | 17.9
CC(=O)NC1(C(F)(F)F)NC(=O)N(c2ccc(F)cc2)C1=O (configuration not stated) | 11.9
O=C1N/C(=C/c2cccn2-c2ccc(F)cc2)C(=O)N1Cc1ccccc1F | 8.6
O=C(CSc1nnc(-c2cccnc2)n1Cc1ccccc1)NCc1ccccc1 | 10.6
NC(=O)CC(NC(=O)Cc1ccc(Cl)cc1)c1ccc(NCc2ccccc2)c([N+](=O)[O-])c1 (configuration not stated) | 16.4
O=C(CSc1c2c(nc3ccccc13)CCCC2)NCc1ccco1 | 10.2
O=C(O)CS(=O)CC(=O)NCc1cccc(C(F)(F)F)c1 (configuration not stated) | 10.3
COC(=O)CSc1nnc(-c2cccnc2)n1C | 14.7
Cc1oc(-c2ccc3c(c2)OCCO3)cc1C(=O)NCC(=O)O | 5.7
CN(C)c1ccc(C(=O)NCc2ccc3c(c2)CCO3)cc1 | 17.5
Nn1c(SCc2cccc(F)c2)nnc1-c1ccncc1 | 9.7
COc1ccc(C)cc1Nc1nnc(C)c(=O)[nH]1 | -4.3
Cc1cc(C)c(NC(=O)C2CCCN2CCC(C)C)c(C)c1 (configuration not stated) | 6.6
COc1ccc(CN2CCN(CCC(C)C)C(CCO)C2)cc1Cn1cccn1 (configuration not stated) | 1.1
Cc1ccc(NC(=O)c2cc(Cl)ccc2[N+](=O)[O-])cc1C | 1.3
O=C(c1ccccc1F)N(Cc1nc2ccccc2c(=O)[nH]1)C1CCCC1 | 18.7
CC(=O)C(Cc1ccccc1)NC(=O)CN1CCc2ccccc2C1 (configuration not stated) | 16.8
Cc1cccc(C)c1NC(=O)COC(=O)CSc1nnc(N)s1 | 10.3
CN(C)C(=O)Cn1c(SCC(=O)Nc2ccc3c(c2)OCO3)nc2ccccc21 | 18.8
CCC(=O)NC(c1ccccc1Cl)c1c(O)ccc2ccccc12 (configuration not stated) | 1.2
O=C(O)CC(CC(=O)Nc1ccc(C(=O)O)cc1)c1ccccc1 (configuration not stated) | 8.1
COC(=O)c1cnn(-c2ccccc2)c1C(OC)OC | -0.2
O=C(COc1ccccc1)NCc1n[nH]c(=S)n1-c1ccccc1 | 12.3
Cc1ccc(NC2Nc3cc(C)nn3S2)c(C)c1 (configuration not stated) | 16.8
COc1ccc(C(=O)N2CCC(c3ccccc3)CC2)c(OC)c1OC | 14.6
O=C(COC(=O)Cc1ccc(Br)cc1)NC1CCCCCC1 | 6.3
COc1ccc(NC(=O)c2cccc(-n3c(C)ccc3C)c2)c(OC)c1 | -3.5
CCN(CC)CCC(c1ccc(N(C)C)cc1)c1c(OC)cc(OC)c2ccc(=O)oc12 (configuration not stated) | 12.3
CC(C)c1cccc(C(C)C)c1NC(=O)COC(=O)c1ccc2c(c1)S(=O)(=O)c1ccccc1C2=O | 6.6
CCOc1ccc(OCC)c(NC(=O)CSc2nnnn2CC)c1 | 8.6
(continued)
SMILES | Biofilm kill mix
CCOCCCNC(=S)N(Cc1ccccc1)Cc1nc2ccccc2c(=O)[nH]1 | 17.1
O=C(O)COc1ccccc1/C=N/NC(=O)CSc1nc2ccccc2n1Cc1ccccc1Cl | 19.7
CCN1/C(=C/c2ccc3ccc(C)cc3[n+]2CC)Sc2ccccc21 | 9.8
C=C1CCC2C(C)(C)[C@H](O)CC[C@@]2(C)[C@@H]1COc1cc(=O)oc2ccccc12 (some centres not stated) | 19.9
Cc1ccc(CNC(=O)Nc2ccc3c(c2)N(C)C(=O)CS3)cc1 | 12.4
CCN1CNC(=S)N(c2ccccc2OC)C1 | 15.5
CCC(=O)NCCNc1ccc([N+](=O)[O-])cn1 | 5.1
O=C(N/C(=C/c1ccc(Cl)cc1)C(=O)N1CCCC1)c1ccccc1 | 13.8
O=C(N1CCCC1)C12CC3CC(C1)CC(C(=O)N1CCCC1)(C3)C2 | 12.7
COc1ccc(C2c3ccsc3CCN2C(C)=O)cc1 (configuration not stated) | 6.6
COc1cc(/C=C2\C(C)=C(C#N)c3nc(N)c(C#N)c(C)c32)ccc1OCC(=O)O | 10.3
Cc1c(/C(O)=C2/C(=O)C(=O)N(CCN3CCOCC3)C2c2ccccn2)cnn1-c1ccccc1 (configuration not stated) | 4.6
Nc1nccc(/C=C/c2c(F)cccc2Cl)n1 | 14.0
Cc1cc(NC(=O)CN2C(=O)NC3(CCC(C)CC3)C2=O)no1 (configuration not stated) | 12.4
COc1ccc(C(=O)Cc2nnc(C)s2)c(OC)c1 | 10.6
CCOc1ccc(C(=O)NCC(=O)Nc2ccc(N3CCOCC3)cc2)cc1OCC | 8.1
Cc1ccccc1OCC(=O)N1CCCc2ccccc21 | 9.5
CC(OCCN1CCCC1)(c1ccc(F)cc1)c1ccc(F)cc1 | 17.3
Cc1cc(C)n(/N=C/c2ccc(O)cc2)c(=O)c1C#N | 21.8
O=C(NNC(=O)C1CC1c1ccccc1)c1ccccc1[N+](=O)[O-] (configuration not stated) | 16.4
Cc1ccsc1/C=C(\C#N)C(=O)NC1CCS(=O)(=O)C1 (configuration not stated) | 9.2
O=C(NCC1(c2ccccc2)CCCC1)C(=O)NCC1(c2ccccc2)CCCC1 | 7.5
COc1ccccc1Nc1nc(N)nc(CSC(=S)N2CCN(c3ccccc3)CC2)n1 | 17.6
Cc1ccc(NC(=S)NNc2ccc([N+](=O)[O-])cc2S(=O)(=O)Nc2ccccc2C(=O)O)cc1C | 17.7
O=C(NC1=NCCS1)c1ccccc1OCc1ccc(F)cc1 | 10.8
CCCCCC/C=C/c1ccc(OC)c([C@H]2[C@H]3C=CC[C@@H](C)[C@@H]3C(=O)N2Cc2ccccc2)c1 | 22.3
COc1cccc(OCc2nc(-c3ccc(Br)o3)no2)c1 | 17.2
O=C(O)/C=C\C(=O)NNC(=O)c1cc(-c2ccccc2)n[nH]1 | 15.4
COC(=O)c1ccc(C(=O)N(CCN(C)C)c2nc3c(Cl)cccc3s2)cc1 | 16.0
Cc1ccc(S(=O)(=O)Oc2ccc(/C=N/NC(=O)c3nn(C)cc3[N+](=O)[O-])cc2)cc1 | 15.7
CC(Cc1ccccc1)NC(=O)/C=C/c1ccc([N+](=O)[O-])cc1 (configuration not stated) | 16.1
COc1cc(CNCCO)cc(Br)c1OCc1ccccc1 | 15.9
Cc1cc(N=Cc2c(O)n(-c3ccc(C)c(C)c3)c(=O)c3ccccc23)no1 | 6.9
CCN(CC)Cc1cc(C(=O)O)c(-c2ccccc2)o1 | 13.1
COc1ccc(C(=O)Nc2ccc(C(=O)Nc3nccs3)cc2)cc1[N+](=O)[O-] | 25.1
COc1cccc(CN(C)C(=O)c2cccnc2SC)c1OC | 9.3
Cc1ccc(C(=O)Nc2ccccc2C(=O)O)cc1NC(=O)COc1c(C)cccc1C | 1.9
CCCC(=O)NCc1cc(-c2nn(C)c(=O)c3ccccc23)ccc1OC | -4.7
CC(C)N1CCc2c(sc(NC(=O)c3cc4cc([N+](=O)[O-])ccc4s3)c2C(N)=O)C1 | 16.0
Nc1c(NC(=O)CC[n+]2ccccc2)cccc1[N+](=O)[O-] | 21.8
CC(=O)Nc1ccc(-c2nnn(CC(=O)c3ccc(F)cc3)n2)cc1Cl | 16.5
C=CCN(CC(=O)O)S(=O)(=O)c1ccccc1C(F)(F)F | 5.0
CC1=NN(C(=O)c2cccnc2)C(O)(C(F)(F)F)C1 (configuration not stated) | 15.6
Cc1cc(N2CCN(C)CC2)nc2ccc(NC(=S)N3CCCCCC3)cc12 | -0.3
Cc1c(NC(=O)CCCN2C(=O)c3cccc4cccc(c34)C2=O)c(=O)n(-c2ccccc2)n1C | 21.8
Cc1ccc(O)c(C(CC(=O)NC2CCCCC2)c2ccccc2)c1 (configuration not stated) | 25.9
CCOc1cc(/C=C/C(=O)O)ccc1OCCO | -11.8
O=C1N/C(=N\N=C\c2cccs2)SC1Cc1ccc(Cl)cc1 (configuration not stated) | 18.3
C=CCCCCCCCCC(=O)NNC1CC(=O)N(c2ccccc2)C1=O (configuration not stated) | 20.8
COc1cccc(/C=N/NC(=O)Cn2nc([N+](=O)[O-])cc2C)c1 | 8.5
O=C(N/N=C/c1c(O)n(-c2ccccc2Cl)c(=O)c2ccccc12)C1COc2ccccc2O1 (configuration not stated) | 10.0
